Bioassay records deposited in PubChem by several laboratories.
RN4220 kill: S. aureus RN4220 growth inhibition. OD600, 16 h. inhibition, % (no concentration beside the values). 0.33% of 330,000 active. AID 1259311;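 active = z-score of -3 or lower and OD600 up to 0.18 on both plates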;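 note: plate controls were untreated cells for no effect and reference antibiotic for full effect; stock transfer was 100 nL into about 80 µL; one replicate is shown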
Mtb hypoxia inh: inhibitors of hypoxia-regulated fluorescent reporter in Mycobacterium tuberculosis. M. tuberculosis hypoxia-regulated fluorescent reporter, fluorescence. fluorescence inhibition, % (test concentration not listed). 0.1% of 300,000 active. AID 1159583;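 active = 35 to 45% if threefold the growth effect, above 45% if 1.5-fold the growth effect; inactive = the rest, general growth blockers included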;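 note: wells of about 50 µL received 100 nL stock; 0% = vehicle wells and 100% = reference inhibitor wells; whole bacteria with a GFP reporter of the hypoxia response; strong numbers were not always called active; many hits fall short of the cut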
Bead autofluor: counter-screen for toxin protease inhibitors: compound fluorescence; fluorescence intensity (no concentration beside the values); 3.1% of 360,000 active; compound autofluorescence counterscreen, microsphere flow cytometry; hits give high values; AID 624483;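 active = at least 3 SD above the mean of all compounds, about 16000 in these data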;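 note: 100 nL of 1 mM stock went into each well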
BJeLR viability: kills HRASV12-expressing BJeLR cells. BJeLR (HRASV12) viability, CellTiter-Glo ATP luminescence, 48 h; reference of the scale not given here. AID 1554. inhibition, % (test concentration not listed). 0.17% of 300,000 active;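 active = replicate mean above 50%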;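 note: 50 nL library stock added to about 25 µL; numbers are from one replicate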
PrP UTR inh: suppresses PrP 5' UTR mRNA reporter expression. cell-based PrP 5' UTR mRNA reporter, plate reader. inhibition, % (concentration not given with the values). 0.35% of 340,000 active. AID 488862;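 active = every replicate at 50% or more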;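 note: 0 = median of the neutral control wells; tested in H4 reporter cells; numbers are from one replicate; inactives centre near -14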
Sa ugtP lethal: compounds lethal to S. aureus RN4220 ugtP deletion mutant; OD600 growth, 16 h; some inactives read as strong as hits; growth inhibition, % (test concentration not listed); 0.54% of 330,000 active; AID 1259309;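 active = z-score under -3 and OD600 up to 0.15 on both plates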;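 note: plate controls were untreated wells for no effect and antibiotic for full effect; wells of about 80 µL received 100 nL stock; the first replicate is given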
Mtb hypoxia inh growth: further read-out of Mtb hypoxia inh, marked with its call; growth inhibition, %; measured here: M. tuberculosis growth (absorbance);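 0% = vehicle and 100% = reference antibiotic; read after six days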
The depositor's hits bear a star; . = no result given.

structure | RN4220 kill | Mtb hypoxia inh | Mtb hypoxia inh growth | Bead autofluor | BJeLR viability | PrP UTR inh | Sa ugtP lethal
CCC(C)N(C(=O)c1csnn1)C(C(=O)NC1CCCC1)c1ccccc1F (configuration not stated) | 5.6 | -1 | 6 | 6033 | -2 | 3 | 5
O=C(CCNC(=O)C1CCN(S(=O)(=O)c2ccccc2)CC1)Nc1ccccc1 | 0.9 | -8 | 0 | 6090 | -1 | 10 | 2
CCOc1ccc(Cn2nnc(C(=O)NCCc3ccc(Cl)cc3)c2N)cc1 | 0.0 | . | . | 6453 | -11 | -24 | -6
CCOC(=O)c1cc(NC(=O)CCC(=O)O)ccc1N1CCCCC1 | 7.3 | 2 | 6 | 4161 | 10 | -67 | 9
Cn1c(-c2ccccc2)cnc1NCc1ccc(F)cc1 | 0.0 | 14 | 9 | 4574 | -3 | -18 | -2
COCCN=c1scc(-c2cc(OC)c(OC)c(OC)c2)n1/N=C/c1c(C)[nH]c2ccccc12 | . | . | . | 2303 | 0 | 7 | .
CC(=O)c1cc(C(=O)NC2CCCc3c2cnn3-c2cc(C)cc(C)c2)[nH]n1 (configuration not stated) | -0.3 | -8 | -4 | 4208 | 7 | -17 | -5
CC(=NNC(=O)c1ccccc1)c1nc2ccccc2n1C | 3.6 | -10 | -6 | . | . | . | 8
Cc1ccc(C2CC=C(C(=O)O)C(c3ccc(Cl)cc3)N2S(=O)(=O)c2ccc(C)cc2)cc1 (configuration not stated) | 14 | 13 | 9 | . | . | . | 41
CC(=O)Nc1ccccc1-c1ccccc1[N+](=O)[O-] | 0.6 | 11 | 8 | 3978 | . | -19 | 1
O=[N+]([O-])c1cc(Br)c(OCc2nnc(-c3ccccc3)o2)c(Br)c1 | 24 | 5 | 8 | 2712 | -1 | -22 | -5
CSc1nc(-c2ccc(Cl)cc2)c(C#N)c(=O)n1C | 3.0 | -2 | 0 | 4173 | -4 | -5 | 3
CCOc1ccc(C(=O)NCc2ccncc2)cc1 | 0.5 | . | . | 3798 | -2 | -11 | 10
CCCCn1c(SCC(=O)Nc2cc(C)on2)nc2c1c(=O)n(C)c(=O)n2C | 4.7 | 0 | 9 | 9657 | -2 | -19 | 1
CCOC(=O)C1CCN(C(=O)C(CC)c2ccccc2)CC1 (configuration not stated) | -0.8 | 4 | 6 | 2336 | -3 | -24 | 10
CC1CCCC(C)N1C(=O)CSc1nnc(CSc2ncccn2)n1C (configuration not stated) | 1.9 | 1 | 3 | 10970 | 0 | -23 | 2
CCOC(=O)C1C(=O)C=C(/C=C/c2ccc(N(C)C)cc2)CC1c1ccccc1 (configuration not stated) | . | . | . | 4380 | 3 | -8 | .
COc1c(O)ccc(C=NNC(=O)c2ccc3c(c2)OCO3)c1[N+](=O)[O-] | 7.5 | 2 | 16 | . | . | . | 14
COc1cccc(Cn2c(NCC(C)C)nc3c2c(=O)n(C)c(=O)n3C)c1 | -2.8 | -3 | -5 | 8850 | 0 | -25 | -7
O=C(Nc1ccccc1N1CCN(C(=O)c2ccc(Cl)cc2)CC1)c1cc(Br)ccc1Cl | -0.6 | -6 | 6 | 4875 | -14 | -4 | -12
N#Cc1c(N)nc(SCC(=O)NCCc2ccccc2)c(C#N)c1-c1cccs1 | 3.7 | . | . | 2934 | -10 | -15 | -10
O=C(CCC(=O)Nc1ccc(Br)cc1)N/N=C/c1ccccc1F | . | . | . | 3798 | 3 | 3 | .
CCCCN(CCCC)C(=O)CSc1nnc(-c2cc(OC)c(OC)c(OC)c2)o1 | -0.7 | -2 | 2 | 10071 | 6 | -42 | -7
Cc1ccc(N2C(=O)Nc3ccccc3C2(O)C(=O)N2CCN(c3ccccn3)CC2)cc1C (configuration not stated) | -4.3 | -14 | 7 | 4612 | 4 | -24 | -3
CSc1nc(C)cc(SCC(=O)Nc2ccccc2)n1 | 4.1 | 8 | 5 | 23915* | 0 | -26 | -3
COCCNC(=O)Cn1nc(-c2ccccc2)c2ccccc2c1=O | . | . | . | 3901 | 0 | -26 | .
CSCCC(NC(=O)COc1ccccc1)C(=O)N(C)Cc1cccc(F)c1 (configuration not stated) | 0.0 | 13 | 7 | 3506 | . | -17 | 1
COC(=O)CCC(=O)OC1(C)C(=O)C=C2C=C(c3ccsc3)OC=C2C1=O (configuration not stated) | . | . | . | 2943 | 15 | 13 | .
COc1cccc2c(O)c(-c3ccccc3)c(=O)[nH]c12 | 5.2 | 9 | 10 | . | -7 | . | 0
N#Cc1ccc(COC(=O)c2cccnc2Cl)cc1 | 1.4 | 16 | 12 | 5411 | 5 | -7 | -2

Carrying on:
structure | RN4220 kill | Mtb hypoxia inh | Mtb hypoxia inh growth | Bead autofluor | BJeLR viability | PrP UTR inh | Sa ugtP lethal
O=C(O)c1cccc(NC(=S)NC(NC(=O)c2ccco2)C(Cl)(Cl)Cl)c1 (configuration not stated) | 2.4 | 6 | 6 | 3413 | 5 | 0 | 10
O=C(NCc1cccs1)C1CC(c2ccccc2O)=NO1 (configuration not stated) | 6.3 | 10 | 10 | 11103 | -1 | -14 | 10
COc1ccc(C=NNC(=O)C2C3CCCCC32)cc1OC (configuration not stated) | 5.8 | -4 | -1 | . | . | . | 13
CCOC(=O)c1c(C)[nH]c(C)c1C(=O)COC(=O)c1ccc(OC)c(OC)c1 | 3.8 | 14 | 14 | 2025 | 6 | -22 | 6
COc1ccc(Cl)cc1S(=O)(=O)Nc1ccc(Cl)cn1 | 7.5 | 14 | -1 | 3036 | -7 | 1 | 1
C[n+]1cn(CC(O)COCc2ccccc2)c2ccccc21 (configuration not stated) | 4.4 | 1 | -2 | 10066 | -6 | . | -2
CN(C(=O)COC(=O)c1ccc(Br)c(S(=O)(=O)N2CCOCC2)c1)C1CCCCC1 | 1.6 | 6 | 2 | 3455 | . | -1 | 4
COC(=O)[C@@]12CCCCN1C(c1ccc(-c3cc(C(C)=O)cs3)c(OC)c1)C1C(=O)N(C)C(=O)C12 (some centres not stated) | 4.3 | -2 | 1 | . | . | . | 5
Cc1nc(=O)c(-c2ccccc2)c(C)n1-c1cccc(/C=C/C(=O)O)c1 | 2.4 | 14 | 0 | 2934 | -4 | -4 | 11
N#CC(Br)Br | 3.8 | 5 | 7 | 3775 | . | 8 | 4
COc1ccc(C(=O)NN=CC23CC[C@@H](O)CC2(O)CC[C@@H]2[C@@H]3CCC3(C)C(C4=CC(=O)OC4)CCC23O)cc1 (some centres not stated) | 6.9 | 3 | 8 | . | . | . | 6
NS(=O)(=O)c1cccc(NC(=O)CSc2nnc(-c3ccncc3)n2C2CC2)c1 | 2.7 | 1 | -3 | 4158 | . | -1 | -1
O=C(NN=Cc1ccc(-c2ccc([N+](=O)[O-])cc2)o1)C(O)c1ccccc1 (configuration not stated) | 16 | -5 | -2 | . | . | . | -1
COc1ccc2c(c1)c(CC(=O)Nc1cc(C)ccc1C)c(C)n2C(=O)c1ccc(Cl)cc1 | -11 | 4 | 12 | 3063 | 2 | -32 | -5
CC(C)CC(N=C1NC(C)(C)Cc2ccccc21)C(=O)O (configuration not stated) | 6.5 | 11 | 7 | 10699 | -12 | -1 | 7
CC(CCc1ccccc1)NC(=O)CCCCCNc1nc(=S)[nH]c2ccccc12 (configuration not stated) | -2.5 | -4 | 8 | . | -8 | . | 0
CC(C)C1C(C#N)=C(N)Oc2n[nH]c(C(C)(C)C)c21 (configuration not stated) | 8.8 | . | . | 4324 | . | -11 | 5
COCc1c(C(=O)N/N=C/c2ccco2)nnn1-c1nonc1N | . | . | . | 5575 | 6 | -12 | .
O=C(Oc1cccc2cccnc12)c1ccc(Br)o1 | -1.4 | . | . | 4247 | 0 | -24 | -3
O=C1C=Cc2ccccc2/C1=C/c1[nH]c(=O)[nH]c1O | . | . | . | 3136 | 0 | -1 | .
COC(=O)c1c(N(S(C)(=O)=O)S(C)(=O)=O)sc2c1CCN(c1ncc(C(F)(F)F)cc1Cl)C2 | 2.8 | . | . | 3575 | 0 | 1 | 9
CCOC(=O)N1CCC(N2CCN(S(=O)(=O)c3ccc(NC(C)=O)cc3)CC2)CC1 | 3.3 | 6 | 6 | 7898 | 1 | -14 | -2
O=C(NCc1ccccc1)N1CCC(CO)(CCc2ccccc2)CC1 | 20 | 2 | -2 | 3761 | 7 | -10 | 0
Cc1ccc(CSC2=NCCN2C(=O)c2ccc(S(=O)(=O)N(C)C)cc2)cc1 | 6.1 | -6 | 9 | 2600 | -3 | -16 | 15
COc1ccccc1/C=C/CN1CCN(Cc2ccc(F)cc2)C(CCO)C1 (configuration not stated) | 10 | -4 | -5 | 4372 | 29 | -5 | 5
CCOC(=O)C1=C(C)Nc2ccccc2N=C1NC(=O)c1cc(C)on1 | 6.2 | 1 | 1 | 2853 | . | -5 | 10
Cc1cccc(N2C(S)=C(C#N)C(=O)NC2c2cccs2)c1 (configuration not stated) | 13 | 12 | 0 | 8935 | . | -26 | 3
N#CC(=NNc1c(Cl)cccc1Cl)C(=O)NN | 10 | -70 | -19 | . | . | . | 5
Cc1nnc(SCC(=O)Nc2cc(S(=O)(=O)N3CCCC3)ccc2Cl)n1C1CC1 | 2.4 | 4 | -5 | 2863 | . | -7 | 0
CCOC(=O)c1nnn(-c2nonc2N)c1CNC(C)C | 1.4 | 2 | 2 | 21205* | -3 | -4 | 1

Compound profiles (already shown). Order of values: RN4220 kill | Mtb hypoxia inh | Mtb hypoxia inh growth | Bead autofluor | BJeLR viability | PrP UTR inh | Sa ugtP lethal
Entry for Cc1nnc(SCC(=O)Nc2cc(S(=O)(=O)N3CCCC3)ccc2Cl)n1C1CC1 : 2.4 | 4 | -5 | 2863 | . | -7 | 0
Entry for O=C(O)c1cccc(NC(=S)NC(NC(=O)c2ccco2)C(Cl)(Cl)Cl)c1 (configuration not stated) : 2.4 | 6 | 6 | 3413 | 5 | 0 | 10
Entry for N#CC(=NNc1c(Cl)cccc1Cl)C(=O)NN : 10 | -70 | -19 | . | . | . | 5
Entry for CCOC(=O)c1c(C)[nH]c(C)c1C(=O)COC(=O)c1ccc(OC)c(OC)c1 : 3.8 | 14 | 14 | 2025 | 6 | -22 | 6

An excerpt from above, showing only Mtb hypoxia inh, RN4220 kill and Bead autofluor.
Structure,Mtb hypoxia inh,RN4220 kill,Bead autofluor
O=C(Oc1cccc2cccnc12)c1ccc(Br)o1,.,-1.4,4247
O=C1C=Cc2ccccc2/C1=C/c1[nH]c(=O)[nH]c1O,.,.,3136

A different layout for some results above.
COCc1c(C(=O)N/N=C/c2ccco2)nnn1-c1nonc1N
- RN4220 kill = .
- Mtb hypoxia inh = .
- Mtb hypoxia inh growth = .
- Bead autofluor = 5575
- BJeLR viability = 6
- PrP UTR inh = -12
- Sa ugtP lethal = .
O=C(Oc1cccc2cccnc12)c1ccc(Br)o1
- RN4220 kill = -1.4
- Mtb hypoxia inh = .
- Mtb hypoxia inh growth = .
- Bead autofluor = 4247
- BJeLR viability = 0
- PrP UTR inh = -24
- Sa ugtP lethal = -3

(cont.)
mol	RN4220 kill	Mtb hypoxia inh	Mtb hypoxia inh growth	Bead autofluor	BJeLR viability	PrP UTR inh	Sa ugtP lethal
Cc1cc(S(=O)(=O)N2CCCCC2)ccc1OCC(=O)N1CCCC1	0.8	-2	8	5934	10	-8	-4
CCCCCCC(=O)NN1CCN(C)CC1	4.2	.	.	2482	4	-7	-3
COc1ccc(C(=O)Nc2n[nH]c(-c3ccncc3)n2)cc1	-0.8	4	4	18001*	-1	-12	0
COc1ccc(NC(=O)CNC(=O)c2ccco2)cc1S(=O)(=O)Nc1cc(C)ccc1Br	-1.9	-9	8	3861	.	-7	-3
O=C(c1ccc(N2CCCCCC2)c([N+](=O)[O-])c1)N1CCc2ccccc21	-0.5	-5	4	.	5	.	0
Cc1c(C(=O)NC2CCCCC2)oc2ccc(F)cc12	2.4	6	11	5567	0	-56	-3
Cc1ccc2nc(SCC(=O)NCc3cccs3)c(C#N)cc2c1	3.3	13	4	9212	-1	-12	2
Cc1ccc(C(=O)N2N=C(c3cccc(NS(C)(=O)=O)c3)CC2c2cccs2)cc1 (configuration not stated)	0.7	-15	5	3801	-6	-10	9
COc1ccccc1N(CC(=O)NCC1CCCO1)C(=O)CNS(=O)(=O)c1ccc(C)cc1 (configuration not stated)	1.9	8	10	10966	2	-9	-3
CC(C)(C)N1Cc2ccccc2C1=N	2.0	-5	2	3999	1	10	2
Cc1ccc(C(=O)N2C3CN(C)C(=O)[C@@]2(C)C2C(=O)N(Cc4ccccc4)C(=O)C32)cc1 (some centres not stated)	6.4	1	0	.	.	.	-3
CCC(C)(C)n1nnnc1C(c1ccncc1)N1CCN(c2cccc(OC)c2)CC1 (configuration not stated)	6.3	4	-2	8675	8	-13	10
COc1ccc(C(C)(C)C)cc1NC(=O)COC(=O)c1ncc(Cl)c(Cl)c1Cl	0.3	-2	13	10727	6	7	-19
